High-throughput results (PubChem BioAssay)
AF4-AF9 inh = inhibitors of AF4 peptide binding to AF9, primary screen, biochemical, AlphaScreen, biotin-AF4 peptide, FLAG-AF9, single point. Protein AF-9 (Homo sapiens), P42568. inhibition, % at 10 µM. 350,000 tested, 0.47% active;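 active = every replicate reaching a set inhibition limit, whatever the replicate mean, cut at about 25% in these data; inconclusive = mean inhibition reaches that limit but some replicates miss it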;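 note: 0% = plate neutral control median and 100% = total signal loss; the record names both 10 and 1 µM as test concentration; the first replicate is given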
Target sequence (P42568 whole entry, looked up): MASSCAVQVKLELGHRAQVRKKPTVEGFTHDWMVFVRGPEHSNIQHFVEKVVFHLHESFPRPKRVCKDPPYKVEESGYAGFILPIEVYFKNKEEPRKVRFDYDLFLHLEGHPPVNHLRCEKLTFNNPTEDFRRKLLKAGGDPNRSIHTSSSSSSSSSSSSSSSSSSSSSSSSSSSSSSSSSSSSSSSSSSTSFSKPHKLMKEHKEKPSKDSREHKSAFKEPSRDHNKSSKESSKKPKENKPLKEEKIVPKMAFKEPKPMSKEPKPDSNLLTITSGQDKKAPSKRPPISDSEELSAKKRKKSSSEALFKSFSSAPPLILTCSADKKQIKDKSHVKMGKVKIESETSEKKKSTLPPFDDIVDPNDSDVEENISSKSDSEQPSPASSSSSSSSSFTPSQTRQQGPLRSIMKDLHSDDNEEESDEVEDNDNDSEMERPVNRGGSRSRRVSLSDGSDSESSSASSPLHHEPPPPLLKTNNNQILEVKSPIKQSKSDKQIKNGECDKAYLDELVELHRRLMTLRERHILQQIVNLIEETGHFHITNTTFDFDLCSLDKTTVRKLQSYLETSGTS
Ecoli rRNA inh = reduced GFP signal of wild-type E. coli, primary screen, bacterial rRNA inhibitor project, GFP/RFP fluorescence, OD600, single point. E. coli WT GFP vs humanized-ribosome RFP mutants, 24 h; active compounds read low; DMSO median 0, no signal -100. GFP signal change (wild-type ribosome), % (concentration not given with the values). 350,000 tested, 1.6% active. AID 720706, 2013;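 active = significant combined selectivity score with lowered wild-type GFP, culture density cut under 30%, mutant RFP and density less affected; inactive = any of these conditions unmet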; note: one replicate is shown; some compounds called inactive have numbers as strong as hits
Calb FLC = C. albicans growth inhibition with fluconazole, primary screen, CaCi-2 strain, Alamar Blue fluorescence; C. albicans CaCi-2 (fluconazole-resistant clinical isolate) + fluconazole, 48 h; growth inhibition, % (concentration not given with the values); 300,000 tested, 0.57% active; AID 1979, 2009;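 active = most replicates above 75%; inconclusive = exactly half above 75%; inactive = most below 75%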;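 note: all wells also contain fluconazole at 8 µg/ml as a sub-toxic cotreatment; 0% = median of DMSO wells and 100% = median of geldanamycin control wells; wells of about 8 µL received 7.5 nL stock; the first replicate is given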
RanGTP-Impb inh = inhibitors of RanGTP-importin-beta interaction, primary screen, biochemical, FRET, CFP-Ran, YFP-importin-beta, homogeneous; cell-free CFP-Ran/YFP-importin-beta FRET ratio; Ran GTPase (GTP-bound) - importin-beta complex; 300,000 tested, 1.1% active; inhibition, % (concentration not given with the values);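 active = most replicates above 15%; inconclusive = exactly half above 15%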;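 note: 0% = DMSO wells and 100% = Ran loaded with GDP instead of GTP; wells of about 40 µL received 100 nL stock; the first replicate is given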
T cruzi inh = inhibitors of intracellular T. cruzi growth, primary screen, luminescence, NIH3T3 host cells; T. cruzi beta-gal in NIH3T3, 90 h; inhibition, % (no concentration beside the values); 300,000 tested, 1.4% active;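 active = mean inhibition across valid replicates above about 55%, limit read from the data; inconclusive = mean below that limit but half or more replicates reach it; inactive = mean below it, under half of replicates reach it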;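 note: signal also drops with host cell toxicity which is not excluded here; 0% = plate median of DMSO wells and 100% = zero luminescence signal; higher percent means less beta-gal luminescence so fewer parasites; stock transfer was 50 nL into about 50 µL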
FGF22 binding = binders of human FGF22 protein, primary screen, FGF22 synaptogenesis inhibitor project, biophysical, thermal shift, single point; Fibroblast growth factor 22 (Homo sapiens), Q9HCT0; recombinant FGF22 thermal shift, SYPRO orange fluorescence; percent of sucrose octasulfate shift, DMSO zero; calls only at 9.99 µM; 340,000 tested, 1.5% active; AID 651658, 2012;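 active = melting point raised past a set limit in the mean and every replicate; inconclusive = no clear call; three in four hits are not shown here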
Target sequence (Q9HCT0 whole entry, looked up): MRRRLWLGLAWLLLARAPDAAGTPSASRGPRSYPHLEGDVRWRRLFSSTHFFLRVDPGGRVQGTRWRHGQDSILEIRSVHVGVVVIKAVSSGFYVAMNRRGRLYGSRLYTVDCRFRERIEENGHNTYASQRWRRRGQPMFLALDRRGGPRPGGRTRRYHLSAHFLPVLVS
ALR inh = inhibitors of human ALR sulfhydryl oxidase, primary screen, biochemical, H2O2 detection, HRP-luminol luminescence, single point; purified ALR, DTT oxidation; AID 485317, 2010; 290,000 tested, 3.8% active; inhibition, % (concentration not given with the values);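 active = mean and each replicate at 75% or more; inconclusive = only one of the two met; inactive = neither met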;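 note: stock transfer was 7.5 nL into about 7.5 µL; 0% = neutral wells and 100% = wells with inactivated enzyme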
Target sequence (P55789 whole entry, looked up): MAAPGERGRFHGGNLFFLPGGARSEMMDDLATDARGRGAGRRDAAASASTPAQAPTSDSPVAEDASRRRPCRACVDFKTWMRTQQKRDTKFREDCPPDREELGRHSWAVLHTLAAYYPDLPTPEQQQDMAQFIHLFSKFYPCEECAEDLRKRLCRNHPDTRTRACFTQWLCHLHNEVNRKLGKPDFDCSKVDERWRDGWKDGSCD
Beta apoptosis = inhibitors of cytokine-induced beta cell apoptosis, primary screen, luminescence; INS-1E cytokine-induced death, ATP luminescence, 48 h; percent of positive-control rescue, neutral wells zero; protection from apoptosis, % (no concentration beside the values); 300,000 tested, 0.8% active;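 active = all replicates at 75% or more, or half of them and the mean; inconclusive = half reach 75% but not the mean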;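 note: 0% = cytokine-treated negative control wells and 100% = positive control rescue; higher means more ATP so stronger rescue from cytokine killing; wells of about 40 µL received 100 nL stock; the first replicate is given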
Ecoli rRNA inh OD600 = further read-out of Ecoli rRNA inh, marked with its call; OD600 change, %; measured here: OD600 growth;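 optical density of the mix in the first replicate; 0 = DMSO median and -100 = no signal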
Ecoli rRNA inh RFP = further read-out of Ecoli rRNA inh, marked with its call; RFP signal change, %; measured here: RFP humanized mutant strains;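 first replicate; 0 = DMSO median and -100 = no signal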
An asterisk follows results filed as active; i = inactive; ? = inconclusive; . = no result given. Only part of the results is shown; count on the stated rates, not on these rows.

SMILES	AF4-AF9 inh	Ecoli rRNA inh	Ecoli rRNA inh OD600	Ecoli rRNA inh RFP	Calb FLC	RanGTP-Impb inh	T cruzi inh	FGF22 binding	ALR inh	Beta apoptosis
Cc1cccc2c1-c1sc(C(=O)NCCCN3CCC(C)CC3)cc1CO2	9.1	-45	-65	-1.5	0	4.8	10	i	-5	4
O=C(C1CCC1)N1CCc2cc(S(=O)(=O)NCc3cccnc3)ccc21	.	.	.	.	-2	-1.0	-5	.	-12	3
O=C1N(Cc2ccccc2)c2ccc(Cl)cc2C12OCCO2	-2.6	-23	-19	-2.7	1	4.2	2	i	2	-1
CC1=NNC(=O)C1CC(=O)N/N=C/c1ccc(C)o1 (centres undefined)	-0.1	16	11	1.4	4	4.5	5	i	18	-2
CC1CCCCC1NC(=O)Cn1c(=O)cnc2ccccc21 (centres undefined)	-0.3	15	11	-0.6	.	.	.	i	-6	-2
CCCc1nn(C)c2c(=O)[nH]c(-c3cc(S(=O)(=O)Nc4ccc(NC(C)=O)cc4)ccc3OCC)nc12	0.0	-2	-6	7.5	0	-1.2	-9	i	-4	-2
CSc1ccc(Cl)c(C(=O)Nc2ccc(OCC(N)=O)cc2)c1	.	.	.	.	-9	3.1	0	.	-3	9
COc1ccccc1/C=C/C(=O)N1CCCC1	1.2	0	-2	4.6	6	-3.3	-7	i	-3	1
Cc1[nH]n(-c2ccccc2)c(=O)c1C=Nc1cccc(F)c1	2.1	8	9	-2.4	-7	-1.1	3	i	6	5
COc1ccc(S(=O)(=O)N2CCN(C(=O)c3ccco3)CC2)cc1OC	.	.	.	.	19	7.1	-28	.	-7	2
Nc1cc2c(cc1O)CCCC2	3.4	-3	-9	-1.6	2	0.3	-24	.	15	-1
CCCc1cc(=O)n2nc(N3CCC(C(=O)NCc4ccco4)CC3)sc2n1	0.7	9	9	-2.2	2	-0.6	-3	i	-3	-2
Cc1ccc(C)c2[nH]c(=O)c(CCNC(=O)c3ccc(S(=O)(=O)N4CCOCC4)cc3)cc12	0.5	-8	-13	4.1	-4	-3.7	4	i	-8	0
CC1(c2ccccc2)NC(=O)N(CC(=O)N2CCN(S(=O)(=O)c3cccc([N+](=O)[O-])c3)CC2)C1=O (centres undefined)	-12	4	14	-2.2	5	1.5	-5	i	-9	.
Cc1ccsc1/C=C(\CC(=O)O)c1nc2ccccc2o1	-0.7	-2	-9	-1.8	-3	?	2	i	29	.
CCOC(=O)c1oc2cccc(OC(C)=O)c2c1C	.	.	.	.	7	-1.0	-6	.	-1	2
COc1ccccc1N1CCN(S(C)(=O)=O)CC1	-41	3	-1	0.1	-4	2.4	2	i	24	-4
OCCC1CN(Cc2cccn2-c2nccs2)CCN1Cc1ccc(F)c(F)c1 (centres undefined)	4.2	11	6	-3.8	-8	0.4	20	i	4	-2
O=C(COC(=O)/C=C/c1cccc(Cl)c1)NCCc1ccccc1	1.5	5	-2	0.9	-5	-2.4	-8	i	.	-1
CCCOc1ccc(OC(=O)Cc2ccc(OC)c(S(=O)(=O)N3CCOCC3)c2)cc1	-29	-2	-5	-0.5	1	0.8	-11	i	18	-1
O=C(CSc1nnc(NC(=O)C2CC(=O)N(c3ccccc3)C2)s1)NC1CCCC1 (centres undefined)	-3.4	4	7	-0.5	-22	-0.8	-17	i	-22	-2
COC(=O)Cn1cnc2c(cnn2-c2ccccc2)c1=O	-6.7	13	-1	-1.0	12	1.4	-5	i	-16	0
c1ccc(SSc2ccccc2)cc1	-2.7	14	6	-1.0	.	0.1	6	i	.	2
CC(=O)Nc1ccc(S(=O)(=O)Oc2ccc(/C=C3\SC(N)=NC3=O)cc2)cc1	-1.8	7	-1	-2.2	-5	7.1	1	i	-4	2
CCN(CC)c1ccc(/C=C/C(=O)c2cccnc2)cc1	-10	4	17	-2.7	93*	-1.7	6	i	-1	-1

Continued (2 carried over from the part before).
SMILES	AF4-AF9 inh	Ecoli rRNA inh	Ecoli rRNA inh OD600	Ecoli rRNA inh RFP	Calb FLC	RanGTP-Impb inh	T cruzi inh	FGF22 binding	ALR inh	Beta apoptosis
CC(=O)Nc1ccc(S(=O)(=O)Oc2ccc(/C=C3\SC(N)=NC3=O)cc2)cc1	-1.8	7	-1	-2.2	-5	7.1	1	i	-4	2
CCN(CC)c1ccc(/C=C/C(=O)c2cccnc2)cc1	-10	4	17	-2.7	93*	-1.7	6	i	-1	-1
COC(=O)c1ccccc1NC(=O)CN1CCN(C(=O)c2ccco2)CC1	.	.	.	.	5	4.2	-5	.	5	.
Cn1cc(C(=O)c2ccc(Cl)cc2Cl)cc1C(=O)NN	-0.5	-7	-2	1.9	-24	-3.0	-5	i	.	.
CC1(C)N(OCc2ccccc2)C(=O)C(=O)N(OCc2ccccc2)C1(C)C	.	.	.	.	-21	-2.9	25	.	-20	-1
C#CCCc1cscc1/C=[N+](\[O-])c1ccc(C(=O)OCC)cc1	-3.0	-1	4	-3.3	.	.	.	i	-5	3
CS(=O)(=O)c1ccc(NC(=O)c2ccccc2-n2cnnn2)cc1	-1.7	20	17	2.0	.	.	.	i	-9	-5
CC1CCCN(c2nc3ccccc3nc2C(C#N)S(=O)(=O)c2cccs2)C1 (centres undefined)	.	.	.	.	26	?	-10	.	97*	2
O=C(Cn1cnc([N+](=O)[O-])n1)NCCO	-1.5	11	18	0.4	1	-4.7	-3	i	.	-2
CCOC(=O)CCc1c(C)nc2cc(-c3ccc(Cl)cc3)[nH]n2c1=O	.	.	.	.	-3	-1.7	11	.	-7	1
COc1ccc(-c2cc(C)nc(SCC(=O)c3cccc([N+](=O)[O-])c3)n2)cc1	.	.	.	.	0	3.6	51	.	5	7
Cc1ccc(S(=O)(=O)N2CCN(C)CC2)cc1-c1nnc2c3ccccc3c(C)nn12	.	.	.	.	5	-2.6	15	.	-21	3
COc1ccc(NC(=O)c2cccnc2Cl)c(S(=O)(=O)N2CCOCC2)c1	.	.	.	.	32	0.4	-16	.	-6	-4
COc1ccc(CN2CCN(C(=O)CCC(=O)Nc3nnc(C(C)C)s3)CC2)cc1F	-10	4	0	0.1	1	9.2	39	i	-3	.
COc1ccc(/C(C)=N/NC(=O)CNC(=O)/C=C/c2ccccc2OC)cc1	-0.4	.	.	.	-2	3.2	7	i	-11	-9
Cc1cc(C(=O)NNC(=S)NCc2ccccc2)no1	-4.5	4	1	0.5	-8	6.1	-4	i	.	.
Cc1ccc2nc(-c3ccccn3)cc(C(=O)NCCc3ccc(F)cc3)c2c1	-1.5	12	11	0.1	-1	1.5	10	i	1	-6
C=CCNC(=O)c1ccc(OC2CCN(S(=O)(=O)N(C)C)CC2)cc1	-0.4	8	8	0.5	-14	-2.0	-8	i	5	-6
COc1ccc(Nc2nc(OC)nc(N3CCOCC3)n2)cc1	13	6	0	-2.8	7	-0.7	14	i	-3	-9
CN(C)S(=O)(=O)c1cccc(NC(=O)COC(=O)C2CCN(C(=O)c3ccc(F)cc3)CC2)c1	0.8	-1	-7	0.1	.	.	.	i	-3	-3
COc1cccc(CC(NC(C)=O)C(=O)NC2CCN(c3ncccc3[N+](=O)[O-])CC2)c1 (centres undefined)	-0.6	-6	-4	-7.9	1	-1.1	11	i	0	-9
CCCSc1cc(=O)n(-c2ccc(F)cc2)nc1C(=O)OCC	0.6	10	7	-0.5	2	-1.6	-5	i	-1	1
NS(=O)(=O)c1ccc(NC(=O)COC(=O)c2cccc(S(=O)(=O)N3CCCC3)c2)cc1	1.0	2	1	-2.1	0	-3.3	-12	i	-4	-2
Cc1ccc(NC(=O)C2CCN(C(=O)c3ccc(F)cc3)CC2)nc1	-1.0	6	6	-0.5	.	4.1	-7	i	-14	-1
COC(=O)C1=CO[C@@H](OC2OC(CO)C(O)C(O)C2O)[C@@H]2C(CO)=CC[C@H]12 (some centres undefined)	0.1	23	10	5.7	-5	-0.1	-2	i	1	-6
O=C(CC1Oc2ccc(Cl)cc2NC1=O)NC1CCCCCC1 (centres undefined)	-2.6	13	9	-0.2	-2	-7.3	-8	i	-4	0
Cc1nnc(SCC(=O)c2c[nH]c3ccccc23)n1C1CC1	1.1	4	4	-2.3	.	.	.	i	-1	-16
SMILES	AF4-AF9 inh	Ecoli rRNA inh	Ecoli rRNA inh OD600	Ecoli rRNA inh RFP	Calb FLC	RanGTP-Impb inh	T cruzi inh	FGF22 binding	ALR inh	Beta apoptosis
Cc1nnc(NC(=O)CCn2cnc3ccccc3c2=O)s1	-1.2	20	12	-0.5	13	-0.3	-11	i	.	-13
COc1ccc(/C=N/OC(=O)c2ccc(Cl)cc2)c(Cl)c1OC	-2.9	12	16	1.1	-2	-1.6	7	i	-1	1
Nc1ccccc1Sc1c[nH]c2ccccc12	2.8	-26*	-11*	3.7*	-7	12	-2	i	99*	.
COc1ccccc1CCN1CCCC(CN(C)C(=O)CCC(=O)N(C)C)C1 (centres undefined)	3.3	-1	9	0.8	-5	1.1	14	i	.	-3
O=c1[nH]c2ccc(NCc3ccccc3OCc3ccc(Cl)cc3)cc2[nH]1	6.2	-36	-59	8.8	42	5.4	14	.	62	11
O=S(=O)(c1cccc2nsnc12)N1CCN(c2ccc(F)cc2)CC1	5.0	-11	-10	-3.5	-6	2.1	8	i	-9	-6

An excerpt of these results, field by field:
Structure: O=C(Cn1cnc([N+](=O)[O-])n1)NCCO
  AF4-AF9 inh: -1.5
  Ecoli rRNA inh: 11
  Ecoli rRNA inh OD600: 18
  Ecoli rRNA inh RFP: 0.4
  Calb FLC: 1
  RanGTP-Impb inh: -4.7
  T cruzi inh: -3
  FGF22 binding: i
  ALR inh: .
  Beta apoptosis: -2

Structure: CC1=NNC(=O)C1CC(=O)N/N=C/c1ccc(C)o1 (centres undefined)
  AF4-AF9 inh: -0.1
  Ecoli rRNA inh: 16
  Ecoli rRNA inh OD600: 11
  Ecoli rRNA inh RFP: 1.4
  Calb FLC: 4
  RanGTP-Impb inh: 4.5
  T cruzi inh: 5
  FGF22 binding: i
  ALR inh: 18
  Beta apoptosis: -2

Structure: CC(=O)Nc1ccc(S(=O)(=O)Oc2ccc(/C=C3\SC(N)=NC3=O)cc2)cc1
  AF4-AF9 inh: -1.8
  Ecoli rRNA inh: 7
  Ecoli rRNA inh OD600: -1
  Ecoli rRNA inh RFP: -2.2
  Calb FLC: -5
  RanGTP-Impb inh: 7.1
  T cruzi inh: 1
  FGF22 binding: i
  ALR inh: -4
  Beta apoptosis: 2

Structure: COc1ccc(/C(C)=N/NC(=O)CNC(=O)/C=C/c2ccccc2OC)cc1
  AF4-AF9 inh: -0.4
  Ecoli rRNA inh: .
  Ecoli rRNA inh OD600: .
  Ecoli rRNA inh RFP: .
  Calb FLC: -2
  RanGTP-Impb inh: 3.2
  T cruzi inh: 7
  FGF22 binding: i
  ALR inh: -11
  Beta apoptosis: -9
